AI-2 QS mod: Vibrio harveyi AI-2 quorum sensing modulators, primary screen, JMH597 strain, luminescence/OD600 ratio. Vibrio harveyi JMH597 AI-2 luminescence/OD600 ratio, 9 h; stronger effect = lower value; strain lacks LuxN and CqsS sensors; 0 = neutral-control median. activity change, % at 7.5 µM. 0.4% of 300,000 active. AID 2094, 2009; in the data active = activity change below about -75%, passing the limit was not always enough;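 also: luminescence divided by OD600 gain over 9 h not by final OD600 alone; inactives centre near 13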
HIF activator: HIF pathway transcriptional activators, primary screen, cell-based, U2OS HRE-luciferase, luminescence; U2OS HRE-luciferase reporter; normalized: DMSO 0%, desferrioxamine 100%; activation, % at 7.5 µM (by protocol); 0.32% of 300,000 active;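 active = mean activation of at least 10% of the iron chelator positive control signal, with at least half of replicates also reaching 10%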
HSP90 refold inh: HSP90 inhibitors, primary screen, cell lysate, luminescence. inhibition, % at 5.6 µM. Rabbit reticulocyte lysate, luciferase refolding luminescence, 3 h. 0.91% of 290,000 active. Heat shock protein HSP 90 (rabbit reticulocyte lysate; luciferase refolding);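 active = inhibition above the screen-wide mean plus 3 SD, computed separately per campaign, cut at about 16% in these data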;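 also: 0% = DMSO wells and 100% = 60 µM geldanamycin wells; inhibitors lower the luminescence because luciferase stays unfolded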
HSF-1 act: HSF-1 activators, primary screen, NIH3T3-HGL cells, MG132 stress, luminescence, single point | NIH3T3-HGL HSF-1 luciferase reporter, 8 h; 100% = twice DMSO control signal | activation, % at 9 µM | 1.7% of 300,000 active;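 active = mean replicate activation of at least 50% with a set share of replicates each reaching 50%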;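 also: 0% = median of the neutral control wells and 100% = twice that signal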
HSF1 inh: HSF1 inhibitors in luciferase reporter cells, primary screen, cell-based, NIH3T3, luminescence; NIH3T3-HGL HSE-luciferase, MG132-induced, luminescence 8 h; stronger effect = lower value; activity change, negative = inhibition, % at 7.5 µM (by protocol); 0.77% of 300,000 active;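 active = more than half of replicate wells show activity change below -50%, luminescence cut by over half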;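 also: luciferase reports HSF-1 transcriptional activity via heat shock element; 0% = median of DMSO wells and -100% = zero luminescence signal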
KLF5 inh: KLF5 expression inhibitors, primary screen, DLD-1 cells, luminescence. inhibition, % at 5 µM. DLD-1 KLF5 promoter-luciferase reporter. 0.23% of 290,000 active. AID 1700, 2009;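 active = inhibition above a per-plate limit of that plate's mean compound inhibition plus 3 SD, cut at about 60% in these data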;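 also: 0% = DMSO wells and 100% = LY294002 at 200 µM; higher means less KLF5 promoter-driven luciferase light; inactives centre near -14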
The depositor's hits bear a star; . = not tested or not shown. An excerpt, so the mix of outcomes need not match the whole.

smiles | AI-2 QS mod | HIF activator | HSP90 refold inh | HSF-1 act | HSF1 inh | KLF5 inh
CCN1/C(=C/C(C)=O)Sc2ccc(OC)cc21 | 14.1 | -0.6 | 5.8 | -13.1 | -8.5 | 23.4
CN([C@@H](Cc1ccc(OS(=O)(=O)c2cccc3cnccc23)cc1)C(=O)N1CCN(c2ccccc2)CC1)S(=O)(=O)c1cccc2cnccc12 | -5.8 | -0.5 | 10.8 | . | 0.6 | 1.6
Cc1cc2ncc(-c3ccccc3)nc2cc1C | 2.9 | -0.4 | 14.7 | 39.9 | 7.6 | -145.3
Cc1nc(Nc2ccc(F)cc2)nc(Nc2ccc(F)cc2)c1[N+](=O)[O-] | -13.0 | -0.3 | 6.8 | -2.8 | 5.0 | 9.7
NC1C2CN(c3nc4c(cc3F)c(=O)c(C(=O)O)cn4-c3ccc(F)cc3F)CC12 (stereo not given) | 5.6 | -0.3 | 1.1 | . | . | 58.1
O=C(Nc1ccc2[nH]ncc2c1)c1cccc(F)c1 | 14.8 | 0.4 | -0.3 | 24.2 | 1.6 | -27.1
O=c1[nH]nc(SCCS(=O)(=O)c2ccc(F)cc2)n1-c1ccc2c(c1)OCCO2 | 17.3 | -0.1 | -0.6 | -6.4 | -3.2 | -41.9

Entries of single compounds from above:
Cc1nc(Nc2ccc(F)cc2)nc(Nc2ccc(F)cc2)c1[N+](=O)[O-] is listed with AI-2 QS mod = -13.0; HIF activator = -0.3; HSP90 refold inh = 6.8; HSF-1 act = -2.8; HSF1 inh = 5.0; KLF5 inh = 9.7
NC1C2CN(c3nc4c(cc3F)c(=O)c(C(=O)O)cn4-c3ccc(F)cc3F)CC12 (stereo not given) is listed with AI-2 QS mod = 5.6; HIF activator = -0.3; HSP90 refold inh = 1.1; HSF-1 act = .; HSF1 inh = .; KLF5 inh = 58.1

Ordered by SMILES length (falling): part of the list above
smiles | AI-2 QS mod | HIF activator | HSP90 refold inh | HSF-1 act | HSF1 inh | KLF5 inh
O=c1[nH]nc(SCCS(=O)(=O)c2ccc(F)cc2)n1-c1ccc2c(c1)OCCO2 | 17.3 | -0.1 | -0.6 | -6.4 | -3.2 | -41.9
O=C(Nc1ccc2[nH]ncc2c1)c1cccc(F)c1 | 14.8 | 0.4 | -0.3 | 24.2 | 1.6 | -27.1
Cc1cc2ncc(-c3ccccc3)nc2cc1C | 2.9 | -0.4 | 14.7 | 39.9 | 7.6 | -145.3
